Compound activity (PubChem)
SARS PLpro yeast: blocks SARS-CoV papain-like protease in a yeast assay | S. cerevisiae expressing SARS-CoV PLpro, growth rescue; control for the full effect not named in the record | Potency, µM (highest dose often 32.9 µM), without a hit: at the highest dose activity, positive = growth rescue | 330,000 tested, 0.19% active | AID 485353; further: 0% is about no effect; nearly all actives have a fitted effect of over 55% in size; growth read by luminescence after 48 h
MARV entry inh: blocks Marburg virus binding to or entry into cells; Marburg virus pseudotyped entry inhibition, cell reporter; control for the full effect not named in the record; about a third of the inactives were read at about 46 µM; Potency, µM (highest dose often 37.8 µM), for the others: at the top dose activity change, negative = inhibition, actives largely listed as inhibitors; 300,000 tested, 1.8% active; active = well fitted inhibition curve with a large enough effect; inconclusive = small, poorly fitted or top-dose-only effect, or effect the other way; inactive = flat fitted curve, though single readings scatter; tested in HEK293 cells; about a fifth of its hits are not listed in these tables; further: on the % scale 0 is the no-effect control and ±100 the full control effect; luciferase read-out
2A StopGo: FMDV 2A StopGo reporter, luciferase signal; human cells with a luciferase reporter of 2A StopGo recoding; control for the full effect not named in the record; Potency, µM (doses to about 57.9 µM), inactives show at the top dose signal change, negative = less light; 410,000 tested, 1.2% active; active = well fitted falling curve with a large enough effect; inconclusive = small, poorly fitted or top-dose-only effect; inactive = no such curve, though single readings can be large or run the other way; tested in HEK293T cells; further: on the % scale 0 is the no-effect control and ±100 the full control effect; nearly all actives have a fitted effect of over 45% in size; luciferase light after 4 h
Cruzain inh Det: inhibitors of Trypanosoma cruzi cruzain with detergent. purified cruzain, Z-FR-AMC fluorescence, 0.01% Triton. Potency, µM, for the others: max response, negative = inhibition, usual class: inhibitors. 200,000 tested, 0.43% active. P25779. AID 1478; active means well fitted curve in the direction sought with a large enough effect; inconclusive means small, poorly fitted or top-dose-only effect, or another doubt; inactive means no such curve, though single readings can be large; an effect the other way counts as inactive or inconclusive;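 further: plate controls were neutral wells for no effect and buffer without enzyme for full effect; nearly all actives have a fitted effect of over 40% in size; top concentration of the series not given in the record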
Target sequence (P25779 123-467 limits assumed): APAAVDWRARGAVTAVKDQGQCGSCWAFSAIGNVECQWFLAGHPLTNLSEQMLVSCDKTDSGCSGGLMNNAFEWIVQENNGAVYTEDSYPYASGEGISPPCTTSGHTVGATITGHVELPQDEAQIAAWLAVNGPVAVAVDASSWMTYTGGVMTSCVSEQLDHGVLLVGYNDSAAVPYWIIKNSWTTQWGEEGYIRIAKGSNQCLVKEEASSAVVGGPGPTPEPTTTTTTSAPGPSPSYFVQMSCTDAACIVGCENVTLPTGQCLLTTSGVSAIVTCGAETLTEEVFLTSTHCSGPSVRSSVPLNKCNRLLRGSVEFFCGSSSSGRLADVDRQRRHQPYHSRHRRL
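Purified cruzain (1.5 nM final) was preincubated with compounds for 15 min at room temperature in 100 mM sodium acetate pH 5.5, 5 mM DTT, 0.01% Triton X-100. Reaction started with 2 uM Z-FR-AMC; AMC fluorescence change over 60 s gave activity.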
NS1 inh: influenza NS1 inhibition; S. cerevisiae slowed by influenza A NS1, growth recovery by OD600; Potency, µM (series often up to 46.1 µM), inactives show top-dose activity, positive = more growth; 270,000 tested, 0.4% active; AID 2326; further: actives are rising curves; nearly all actives have a fitted effect of over 50% in size
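OD600 was taken as the measure of yeast growth restored by compound in an NS1-expressing S. cerevisiae strain. Cells had been washed out of glucose medium and diluted 1:100 into galactose -URA medium, pH 6.0.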
Lassa entry inh: Lassa virus entry inhibition. Lassa virus pseudotype entry inhibition, cell reporter; control for the full effect not named in the record. Potency, µM (titrated, usually from 37.9 µM), for inactives: at the top dose activity change, negative = inhibition, usual class: inhibitors. 300,000 tested, 1.2% active. AID 540256; active means well fitted inhibition curve with a large enough effect; inconclusive means small, poorly fitted or top-dose-only effect, or effect the other way; inactive means flat fitted curve, though single readings scatter; tested in HEK293 cells; further: on the % scale 0 is the no-effect control and ±100 the full control effect; nearly all actives have a fitted effect of over 50% in size; luciferase read-out
Cruzain inh noDet: blocks cruzain activity in detergent-free assay; purified cruzain, Z-FR-AMC fluorescence, no detergent; Potency, µM, for inactives: max response, negative = inhibition, usual class: inhibitors; 200,000 tested, 2.3% active; P25779; active means well fitted curve in the direction sought with a large enough effect; inconclusive means small, poorly fitted or top-dose-only effect, or another doubt; inactive means no such curve, though single readings can be large; an effect the other way counts as inactive or inconclusive;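 further: plate controls were enzyme without inhibitor for no effect and buffer without enzyme for full effect; nearly all actives have a fitted effect of over 40% in size; top concentration of the series not given in the record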
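Detergent-free condition (0.00005% Triton X-100) in acetate buffer pH 5.5 with DTT. 1.5 nM enzyme and compound were pre-mixed 15 min, then 2 uM Z-FR-AMC substrate added; reaction progress from fluorescence change between first and third reads (60 s).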
RE007 growth inh: less growth of the S. pombe RE007 Vpr strain; S. pombe RE007 Vpr strain, BacTiter-Glo ATP luminescence, 24 h; control for the full effect not named in the record; Potency, µM (series often up to 92.2 µM), for the others: at the highest dose activity change, negative = less growth; 360,000 tested, 0.21% active; AID 651644; active = well fitted falling curve with a large enough effect; inconclusive = small, poorly fitted or top-dose-only effect; inactive = no such curve, though single readings can be large or run the other way;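 further: on the % scale 0 is the no-effect control and ±100 the full control effect; nearly all actives have a fitted effect of over 50% in size; the assay follows cell death caused by Vpr and the record does not say whether a fall means rescue or toxicity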
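Fission yeast strain RE007, carrying one chromosomally integrated HIV-1 vpr copy, was seeded at OD 0.01 in PMG+AL medium with 23 nL pinned compound. After 24 h at 30 °C and 99% humidity, viability was read by BacTiter-Glo luminescence.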
Numbers without * were called inactive; u = inconclusive; x = no result given; & = joins results of further samples; [ ] = another dose, or the depositor's remark. Unless noted, the call rests on the fitted dose curve; in most records, active means well fitted rising curve with a large enough effect; inconclusive means small, poorly fitted or top-dose-only effect; inactive means no such curve, though single readings can be large or run the other way. Potency means the concentration at half of the fitted maximal effect.

No.	Molecule	SARS PLpro yeast	MARV entry inh	2A StopGo	Cruzain inh Det	NS1 inh	Lassa entry inh	Cruzain inh noDet	RE007 growth inh
1	Cc1cc2c(cc1S(=O)(=O)Nc1ccc(F)cc1)n(C)c(=O)c(=O)n2C	-2%	x	10%	x	-6%	x	x	1%
2	CCOC(=O)N1CCC(C(N)=O)CC1	2%	7%	-18%	2.0%	-4%	-13%	-6%	0%
3	O=C(N/N=C/c1ccc(C(=O)O)cc1)C1=NNC(c2ccccc2)(c2ccccc2)C1	0%	x	1%	x	12%	x	x	-1%
4	CCOc1ccc(NS(=O)(=O)c2cc(C(=O)N3CCN(C(C)=O)CC3)ccc2Cl)cc1	3%	2%	17%	x	15%	-3%	x	-26%
5	COc1ccc(Cn2ccc3nc(C)c(C(=O)Nc4ccc(OC)c(OC)c4)cc3c2=O)cc1	x	x	-16%	-0.5%	x	-13%[46.1 µM]	-3%	x
6	Cc1cc(C(=O)CN2CCCC2)c(C)n1-c1ccc(Cl)cc1	-2%	-22%[46.1 µM]	-15%	x	x	x	x	5%
7	Cc1ccc(-c2cnc3cc(C)nn3c2)cc1	-1%	u	-39%	x	x	u	x	-5%
8	C/C(N)=C(/C#N)C(=O)COC(=O)COc1ccc(Cl)cc1C	8%	u	-15%	-0.2%	4%	-3%	4%	-15%
9	COC(=O)c1ccc(COc2ccccc2/C=C(\C#N)C(=O)Nc2ccccc2C)cc1	-1%	0%	19%	-4.4%	10%	u	-19%	7%
10	COc1ccc(-c2cccc([C@H]3[C@@H]4C=CC[C@@H](C)[C@@H]4C(=O)N3Cc3ccccc3)c2)cc1	6%	x	u	-3.7%	x	x	u	6%
11	COc1cc(NC(=O)C(c2ccccc2)c2ccccc2)c(C(=O)O)cc1OC	1%	x	-4%	x	13%	x	x	6%
12	Cc1nn(-c2ccc(Cl)cc2)c(=O)c2ccccc12	0%	6%	32%[activator]	x	-1%	u	x	-7%
13	O=C(CCn1c(=S)[nH]c2cc3c(cc2c1=O)OCO3)N1CCc2ccccc2C1	2%	x	x	-2.5%	-2%	x	-25%	x
14	CCN(CC)CCCN=Cc1c(-c2ccccc2)[nH]n(-c2nc3ccccc3s2)c1=O	1%	-4%[46.1 µM]	-1%	x	-4%	3%	x	-12%
15	Cc1sc(NC(=O)CN2CCCC2)nc1-c1ccc2c(c1)CCN2C(=O)c1cccc(F)c1	0%	u	u	x	23%	u	x	-23%
16	Cc1cc(C)c(OCCCCN(C)Cc2ccccc2)c(C)c1	-2%	x	-24%	x	-3%	x	x	-5%
17	O=C(NC(NC1CCS(=O)(=O)C1)C(Cl)(Cl)Cl)c1cccc(Cl)c1 (stereo unspecified)	3%	2%	-4%	1.9%	u	-4%	-1%	-6%
18	CN1/C(=C\C(=O)CSc2nnc(NCc3ccccc3)s2)C(C)(C)c2ccccc21	-25%	1%	u	-7.4%	-3%	-5%	u	-2%
19	CC(O)(CS(=O)(=O)c1cccc(C(F)(F)F)c1)C(=O)Nc1cccc(C(F)(F)F)c1 (stereo unspecified)	4%	-23%	u	-2.8%	18%	-21%	17%	-23%
20	Cc1cc(/C=C(\C#N)C(=O)NCC2CCCO2)c(C)n1-c1ccc(Cl)cc1 (stereo unspecified)	-6%	u	14%	-5.1%	-1%	u	u	-12%
21	C=CCNC(=S)N1CCc2[nH]c3ccccc3c2C1	-1%	11%	-3%	x	-2%	u	x	-13%
22	CC(C)CNC(=O)c1ccc(COc2ccc(Cl)cc2Cl)o1	-9%	-17%	0%	-9.7%	-78%	11µM*	-5%	-19%
23	CCN(CC(=O)Nc1ccc(NC(C)=O)cc1)c1ccc(C(F)(F)F)cn1	-2%	2%	-12%	-2.8%	8%	4%	7%	-4%
24	O=C(CCC1CCCN(Cc2ccc3c(c2)OCCO3)C1)NCc1ccc(F)c(F)c1 (stereo unspecified)	1%	x	-7%	x	-9%	x	x	4%
25	COc1cccc(-c2cc3nc4c(c(N5CCC6(CC5)OCCO6)n3n2)CCC4)c1	0%	x	-9%	x	1%	x	x	-3%
26	Cn1c(=O)[nH]c2nnc(-c3ccc(Cl)c(Cl)c3)nc2c1=O	1%	u	-30%	x	-57%	10µM*	x	-10%
27	Cc1ccnc(NS(=O)(=O)c2ccc(-n3cccn3)cc2)c1	5%	x	84%[activator]	x	8%	x	x	4%
28	CC1=C(c2ccc(C(C)C)cc2)S(=O)(=O)N=C1N1CCC(C(=O)NCc2ccco2)CC1	x	x	-9%	-1.7%	x	5%[46.1 µM]	11%	x
29	Cc1ccc(CCNC(=O)C2CCCN(c3nnc(C)c4c(C)n(-c5ccccc5)nc34)C2)cc1 (stereo unspecified)	x	x	-11%	-3.6%	x	14%[46.1 µM]	11%	x
30	COCCn1c(SCC(=O)NCc2ccccc2)nnc1-c1ccco1	-9%	7%	-8%	-2.5%	-1%	1%	-3%	-18%
31	Cc1nc(SCC(=O)Nc2ccc(Cl)cc2[N+](=O)[O-])nc(C)c1C	-13%	-25%	u	-7.2%	-5%	-2%	-28%	13%
32	CC1CCCC(C)N1/N=C/c1ccc(C#N)cc1 (stereo unspecified)	3%	u	1%	x	4%	0%[46.1 µM]	x	23%
33	COc1ccc2c(c1)CCN(C(=O)CCl)C2C1C(=O)CCCC1=O (stereo unspecified)	19%	-13%[46.1 µM]	4%	-1.3%	8%	u	8%	-5%
34	CCN1CCN(Cc2ccc(NC(=O)c3cc(NC(=O)C4=NN(c5ccccc5)C(=O)C4)cc(OC)c3)cc2C(F)(F)F)CC1	0%	x	-7%&-2%	x	1%	x	x	22%&10%
35	CCC(=O)NC(=S)Nc1cccc(NC(=O)c2ccccc2)c1	-2%	u	-9%	x	4%	-28%[46.1 µM]	x	44%
36	CCOc1ncccc1C(=O)OCC(=O)NC1CC1	-2%	-2%[46.1 µM]	-15%	x	x	15%[46.1 µM]	x	11%
37	CCc1ccc(-c2nc(CN3CCC(C(=O)N4CCN(c5ccccn5)CC4)CC3)c(C)o2)cc1	-14%	u	25µM*	-0.3%	-8%	u	-12%	-12%[3.69 µM]
38	N/C(=N\OS(=O)(=O)c1ccc2ccccc2c1)c1ccncc1	12%	u	8%	-17%	-10%	u	-15%	0%
39	O=C(Nc1ccc2c(c1)C(=O)NC2=O)c1cccc(Cl)c1	6%	x	8%	x	2%	x	x	-14%
40	Cc1csc(NC(=O)C(CC(C)C)NS(=O)(=O)c2ccc3c(c2)oc(=O)n3C)n1 (stereo unspecified)	6%	5%	0%	0.4%	-11%	x	-19%	-5%
41	CN(C)C/C=C/C(O)(c1ccccc1)c1ccccc1	0%	u	-1%	x	-12%	1%	x	-2%
42	CC(=O)Nc1ccc(S(=O)(=O)NC(CC(=O)NCCCN2CCOCC2)C(C)C)cc1 (stereo unspecified)	3%	5%[46.1 µM]	-12%	-0.2%	17%	-4%	-7%	4%
43	O=C(COC(=O)c1ccc(S(=O)(=O)N2CCCCC2)cc1)NCc1ccc(F)cc1	-2%	6%	-29%	x	x	u	x	-17%
44	O=C1NC(c2ccccc2)(C(F)(F)F)SC2=NCCCN12 (stereo unspecified)	-2%	11%	-8%	4.0%	-8%	-8%	-3%	-2%
45	CN(C)c1ccc(C(CNS(=O)(=O)c2ccc3ccccc3c2)N2CCOCC2)cc1 (stereo unspecified)	-5%	-1%	13%	x	x	2%	x	-3%
46	Nc1nc(Br)c2c(F)cccc2c1-c1ccc(Cl)cc1	10%	-17%	-29%	-3.4%	0%	-1%	u	-10%
47	O=C(Cc1ccc(F)cc1)Nc1nnc2n1CCS2	x	x	16%	0.9%	x	-7%[46.1 µM]	-10%	x
48	N#CC1=C(SCC(=O)Nc2ccccc2)NC(=O)CC1c1ccco1 (stereo unspecified)	x	u	49%[activator]	x	x	-27%	x	11%
49	Nc1nc2ccccc2n1/N=C/c1ccc2c(c1)OCO2	1%	u	40%[activator]	x	u	3%	x	-11%
50	Cc1ccnc(NS(=O)(=O)c2ccc(NC(=O)c3cc(-c4ccc(Br)cc4)nc4ccccc34)cc2)n1	-6%	u	u	-4.2%	20%	u	u	-9%

(more compounds)
No.	Molecule	SARS PLpro yeast	MARV entry inh	2A StopGo	Cruzain inh Det	NS1 inh	Lassa entry inh	Cruzain inh noDet	RE007 growth inh
51	CCOc1ccc(NC(=S)NC(C)C(c2ccccc2)N2CCN(C)CC2)cc1 (stereo unspecified)	1%	u	-7%	x	x	x	x	7%
52	CC(C)N1CC2(c3ccccc3)CN(C(C)C)CC(c3ccccc3)(C1)C2=O	1%	u	14%	0.1%	6%	10%	-3%	-5%
53	CC(=O)Nc1ccc(OC(=O)N(C)c2ccc(C)cc2)cc1	-10%	x	14%	x	-22%	x	x	16%
54	CC(C)NCCOc1cccc(Br)c1	3%	19%	-7%	0.9%	-1%	5%	-10%	-8%
55	Cc1c(NC(=O)/C(C#N)=C/c2ccccc2)c(=O)n(-c2ccccc2)n1C	-1%	-20%	-25%	x	4%	-18%	x	12%
56	COc1ccc(OCC(=O)Nc2nnc3n2CCS3)cc1	x	x	0%	1.3%	x	-5%[46.1 µM]	-3%	x
57	CN(C)CCn1c2c(c(SCC(=O)NCc3ccccc3)nc1=O)CCC2	6%	-20%	20%	x	x	-1%	x	-2%
58	CCOC(=O)C1(CCOc2ccccc2)CCN(Cc2cccc3nonc23)CC1	-1%	x	u	x	-6%	x	x	-1%
